Screens from PubChem BioAssay.
WNV protease inh – WNV NS2B-NS3 proteinase inhibition; P06935; WNV NS2B-NS3 protease, fluorogenic substrate Ex360/Em465; stronger effect = lower value; z-score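 (tested at a level between 10 and 100 µM)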; hit rate 0.18% among 65,000; AID 577;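 active means z-score at -3 or under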;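 further: score is relative to mean and spread of the compound wells of a plate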
Target sequence (P06935 1371-1501 limits assumed): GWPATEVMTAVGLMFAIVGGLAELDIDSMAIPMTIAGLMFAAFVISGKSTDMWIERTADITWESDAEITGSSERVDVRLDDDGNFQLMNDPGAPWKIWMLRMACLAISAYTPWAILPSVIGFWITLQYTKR
Target sequence (P06935 1502-1679 limits assumed): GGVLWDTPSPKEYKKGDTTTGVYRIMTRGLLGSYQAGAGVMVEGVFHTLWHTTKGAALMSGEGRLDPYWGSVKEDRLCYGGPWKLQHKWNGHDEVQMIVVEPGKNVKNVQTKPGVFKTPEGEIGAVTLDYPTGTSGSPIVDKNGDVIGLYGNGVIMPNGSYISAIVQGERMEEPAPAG
Hsc70 ATP site – small molecules displacing fluorescent ligand from Hsc70 – biochemical, fluorescence polarization, primary screen (AID 568). Hsc70 fluorescence polarization, probe displacement; higher % means a stronger effect; strong numbers were not always called active. displacement, % at 20 µM; hits with a dose series show IC50 in µM. 83,000 tested, under 10 active;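 active means displacement above 50% without optical interference and an IC50 on retest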;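 further: ATPase domain with a fluorescein-tagged ATP probe; 0% = vehicle and 100% = excess ADP; read after one hour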
MT1-MMP promoter – MT1-MMP gene expression reporter suppression – cell-based, luciferase reporter, luminescence (AID 618); MT1-MMP promoter luciferase reporter cells, luminescence; calls from a first round at 10 µM; hits with a dose series show EC50 in µM; hit rate 0.62% among 87,000;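 active means over half of the reporter light lost at 10 µM or EC50 under 50 µM; inactive means the rest and hits that failed the dose series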;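 further: actives suppress MT1-MMP promoter-driven transcription so potencies describe inhibitors; HT1080 fibrosarcoma cells; overnight exposure; toxic or luciferase-blocking compounds were not removed from the actives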
* hit, by the source's call; i = inactive; / = no result given; + = active, no number.

Sample of the layout (three entries):
SMILES	MT1-MMP promoter	WNV protease inh	Hsc70 ATP site
O=S(=O)(c1ccc(Oc2ccc(S(=O)(=O)N3CCOCC3)cc2)cc1)N1CCOCC1	i	-0.66	-3.9%
CC(=O)Nc1ccc(CN2CCCCCCC2)cc1	i	-0.19	3.8%
CCCCCOC(=O)Cn1c(N2CCOCC2)nc2c1c(=O)[nH]c(=O)n2C	i	1.38	1.2%

All compounds of this part (from the top)
SMILES	MT1-MMP promoter	WNV protease inh	Hsc70 ATP site
O=S(=O)(c1ccc(Oc2ccc(S(=O)(=O)N3CCOCC3)cc2)cc1)N1CCOCC1	i	-0.66	-3.9%
CC(=O)Nc1ccc(CN2CCCCCCC2)cc1	i	-0.19	3.8%
CCCCCOC(=O)Cn1c(N2CCOCC2)nc2c1c(=O)[nH]c(=O)n2C	i	1.38	1.2%
CCOC(=O)c1sc(=NC(=O)c2cc(OC)c(OC)c(OC)c2)n(C)c1C	i	0.34	1.2%
CCn1c(CSc2nnc(-c3ccoc3C)n2C)nc2cc(S(=O)(=O)N(C)C)ccc21	i	1.54	-0.8%
COCC(=O)Nc1nc(-c2ccccc2)ns1	i	0.3	1.6%
C=CCNc1nc(-c2ccccn2)nnc1-c1ccccc1	15.2µM*	/	5.9%
O=C(NCc1cccs1)C1CCCN(c2nc3ccccc3o2)C1 (centres undefined)	i	1.21	1.2%
CCC1Oc2ccc(C)cc2N(CC(=O)NCCC2=CCCCC2)C1=O (centres undefined)	i	1.73	-7.4%
Fc1ccc2[nH]c3c(N4CCN(c5ccccc5)CC4)ncnc3c2c1	i	-0.51	1.7%
CC1(C)CC(=O)C=C(Nc2ccccc2O)C1	i	1.68	-0.2%
O=[N+]([O-])c1ccc(S(=O)(=O)N2CCN(Cc3c[nH]c4ccccc34)CC2)cc1	i	/	0.7%
Cc1nc(S(=O)(=O)N2CCOCC2)c(C#N)c(C)c1Cl	i	1.31	-3.0%
COC(=O)C1=C(C)NC(=O)NC1c1cn(-c2ccccc2)nc1-c1cccs1 (centres undefined)	i	-0.17	5.8%
CN1CCN(S(=O)(=O)c2ccc(NC(=O)c3ccc(Br)s3)cc2)CC1	i	1.83	-2.4%
Cc1ccc2c(c1)NCC(C(=O)NC1CCC(C)CC1)O2 (centres undefined)	i	0.12	-1.3%
CC(C)OCCCNc1ncnc2c1cnn2-c1ccccc1	+	0.52	0.9%
O=C1c2oc3ccc(Cl)cc3c(=O)c2C(c2cccnc2)N1Cc1ccco1 (centres undefined)	i	-0.09	3.9%
Cc1ccc(Nc2nc(C(=O)N3CCC(C(=O)N4CCN(C)CC4)CC3)cs2)cc1	i	-0.03	-3.7%
CCC(C)(C)C1CCC2(CC1)NC(CO)(CO)CO2 (centres undefined)	i	/	2.6%
COCCSc1ccccc1C(=O)NCCCn1ccnc1	i	-1.24	-1.5%
CC(=O)OCC(=O)[C@@]1(O)CC[C@H]2[C@@H]3CCC4=CC(=O)CC[C@]4(C)[C@H]3C(=O)C[C@@]21C	i	-0.4	1.0%
O=C(NCc1cccnc1)NC1CCCN1S(=O)(=O)c1ccc(Cl)cc1 (centres undefined)	i	-0.68	5.3%
CCOC(=O)CN(C(=O)CSc1nnc(C)n1-c1ccccc1)c1cccc([N+](=O)[O-])c1	i	/	3.2%
O=C(NCC1CCCO1)C(c1cccs1)N(C(=O)Cn1nnc(-c2cccs2)n1)C1CCCC1 (centres undefined)	i	/	3.4%
COc1ccc(C)cc1-n1nnnc1SCC(=O)c1ccc2c(c1)OCCO2	i	-1.32	-0.8%
O=C1CCCc2oc3ccc(O)cc3c21	i	/	-4.4%
Cc1ccc(/C(O)=C2/C(=O)C(=O)N(CCCn3ccnc3)C2c2ccccn2)cc1 (centres undefined)	i	/	-1.2%
Cc1cc(C)nc(N2CCCC(C(=O)Nc3ccc4c(c3)OCCO4)C2)n1 (centres undefined)	i	-0.53	2.2%
C/C=C/Cn1c(Br)nc2c1c(=O)[nH]c(=O)n2C	i	-0.59	1.1%
Cc1ccc(CN2C(=O)CCC2C(=O)NCc2ccc3c(c2)OCO3)cc1 (centres undefined)	i	-1.1	2.0%
COc1ccc(C2c3c(oc4ccccc4c3=O)C(=O)N2Cc2ccncc2)cc1OC (centres undefined)	i	0.06	-0.3%
Cc1ccc(NC(=O)CSc2nc(=O)cc(N)n2-c2ccccc2)cc1	i	/	2.1%
COc1cccc2c(=O)n(CC(=O)N3CCN(c4ccccc4)CC3)ccc12	i	-1.17	3.0%
C=CCN1C(=O)C(CC(=O)NCC)SC1=Nc1ccc(S(N)(=O)=O)cc1 (centres undefined)	i	-1	-2.8%
Cn1cnc(S(=O)(=O)Nc2ccc(C(F)(F)F)cc2)c1	i	0.56	-3.0%
CCNc1nc(Oc2ccccc2)nc(OC(C)C(=O)OCC)n1 (centres undefined)	i	0.32	-1.1%
O=C(COC(=O)c1ccc(Br)o1)Nc1ccc(S(=O)(=O)N2CCCC2)cc1	i	-0.75	5.1%
CCN1CCc2c(sc(NC(=O)c3ccc(S(=O)(=O)N4CCOCC4)cc3)c2C(N)=O)C1	i	-1.89	1.5%
COC(=O)Nc1cc(C(F)(F)F)ccc1N1CCN(c2ccccc2)CC1	i	-0.02	6.4%
CCN(CC)S(=O)(=O)c1cccc(-c2nnc(SCCOc3ccc(Cl)cc3)o2)c1	i	0.59	-0.5%
O=C(O)CCC(=O)Nc1ccccc1N1CCOCC1	i	-0.66	-1.0%
CCOc1ccc(N2C(=O)CC(SC(=NC)Nc3ccc(F)cc3)C2=O)cc1 (centres undefined)	i	/	-2.7%
Cc1ccccc1C(=O)N1CCN(c2ccc(NC(=O)c3ccco3)cc2Cl)CC1	i	-0.39	-0.2%
C=CCNC(=O)NC(=O)COC(=O)CCCSc1nc2ccccc2[nH]1	i	-1.24	-3.4%
CCOc1ccc2[nH]c(=O)c(C(c3nnnn3Cc3ccco3)N3CCCC(C)C3)cc2c1 (centres undefined)	i	1.07	3.1%
Cn1nc(C(=O)NCc2cccnc2)c2ccccc2c1=O	i	0.83	5.7%
O=C(c1ccco1)N1CCN(C(=O)C2CC(c3ccc(Cl)c(Cl)c3)=NO2)CC1 (centres undefined)	i	-0.64	1.5%
CCN1CC=C2C(C#N)=C(N)C(C#N)(C#N)[C@H](c3ccoc3)[C@H]2C1	i	/	55.1%
CC(=O)Nc1ccc(Nc2ncnc3c2cnn3-c2ccc(C)cc2C)cc1	i	/	0.2%
COc1nc(-c2ccc(C)cc2)ccc1-c1noc(-c2cccnc2)n1	i	0.99	-17.2%
O=C(NC1CCCC1)C(c1ccccc1F)N(C(=O)c1ccco1)C1CCCC1 (centres undefined)	i	0.89	1.1%
C=CCn1c(NC)cc(=O)n(C)c1=O	i	0.09	-1.3%
CCOc1nc(C)ccc1-c1noc(CC)n1	i	/	0.5%
COc1ccccc1CC(=O)N1CCN(c2cccc(C(F)(F)F)c2)CC1	i	-1.16	-6.0%
Cn1c(=O)c2c(ncn2CC(=O)OCC(=O)NC2CCCc3ccccc32)n(C)c1=O (centres undefined)	i	-0.46	-0.8%
O=C(c1ccc2c3c(cccc13)CC2)N1CCN(c2ncccn2)CC1	i	-0.21	7.0%
CCOc1ccccc1-c1nc(C(N)=O)c2[nH]c(=O)n(-c3cccc(C)c3)c2n1	i	-0.13	-5.0%
COc1cc(NS(=O)(=O)c2ccc(C)cc2)c2ncccc2c1	i	2.67	2.5%
Cc1cc(C)c2c(n1)sc1c(O)cc(=O)[nH]c12	i	-0.94	11.9%

(further entries)
SMILES	MT1-MMP promoter	WNV protease inh	Hsc70 ATP site
CC1=Nn2c(nnc2-c2ccccc2)SC1	i	-0.17	-2.0%
CC(C)NC(=O)c1ccccc1NC(=O)c1ccccc1N(C)S(C)(=O)=O	i	0.24	5.5%
CCOC(=O)CNc1c(-c2ccc(O)cc2)nc2ccc(Cl)cn12	i	0.75	1.2%
O=C(c1cccc(-c2nnc(-c3ccccc3)o2)c1)N1CCCCC1	i	0.4	-3.0%
CCNC(=O)C1CC(=O)N(Cc2ccc3c(c2)OCO3)C(=Nc2ccc(OCC)cc2)S1 (centres undefined)	i	-0.5	4.9%
Cc1cc(NCCCN2CCOCC2)n2c(nc3ccccc32)c1C#N	i	2.01	-1.8%
COCCCNC(=O)C1CCN(c2nc(C)cc(C)n2)CC1	i	-0.95	6.2%
O=C(CN1CCN(C(=O)c2cccs2)CC1)Nc1ccc(Br)cc1	i	0.1	0.5%
Cc1cc(N2CCCC2=O)c(N)cc1N	i	0.15	2.0%
CCOc1ccc2ccccc2c1C(=O)N1CCN(c2ccccc2)CC1	i	-1.01	-0.1%
Cc1ccc(S(=O)(=O)N(Cc2ccccc2)Cc2ccco2)cc1	i	-0.16	6.9%
O=C(NCCN1CCN(c2ccccc2)CC1)C1CCN(S(=O)(=O)c2cccc3nonc23)CC1	i	1.28	-2.2%
CC(=O)N(Cc1ccccc1)c1ccc(C(=O)O)cc1	i	-0.84	6.3%
COC(=O)c1ccc(C2/C(=C(\O)c3ccc(OC)c(C)c3)C(=O)C(=O)N2c2cc(C)on2)cc1 (centres undefined)	i	0.2	4.2%
Cc1cc(C)c(C(=O)CSc2nnc(-c3ccccc3Br)o2)cc1C	i	-0.59	3.1%
CC(c1ccco1)N(C(=O)C12CC3CC(CC(C3)C1)C2)c1ccccn1 (centres undefined)	i	-0.39	-2.0%
CN(C)CCN1C(=O)C(=O)/C(=C(/O)c2ccc(F)cc2)C1c1ccccc1F (centres undefined)	i	-0.89	11.1%
CCc1cccc2c(=O)c(C(=O)N3CCCCCC3)c[nH]c12	i	-0.81	8.0%
COC(=O)c1oc2nc(C)cc(C)c2c1N	i	-0.51	-8.5%
NC(=O)NC(c1ccccc1)c1ccccc1F (centres undefined)	i	-0.48	-5.3%
Cc1nnc(N(Cc2ccco2)C(=O)c2cccc(C#N)c2)s1	i	-0.21	5.8%
CC(C)NC(=O)Cn1c(SCC(=O)N2CCCc3ccccc32)nc2ccccc21	i	2	-7.2%
COc1ccc(Br)cc1C(=O)Nc1ccc(O)cc1	i	-0.29	4.4%
COC(=O)c1ccc(OCc2nc(N)nc(N3CCOCC3)n2)cc1	i	0.27	-5.6%
COc1cc(C(=O)NCCc2ccc(S(N)(=O)=O)cc2)cc(OC)c1OC	i	0.79	1.9%
Cc1cc(O)ccc1NC(=O)c1ccccc1	i	2.19	1.0%
CC1(c2ccccc2)NC(=O)N(CC(=O)NC(=O)NC2CCCC2)C1=O (centres undefined)	i	-0.88	4.0%
CCC(Cc1ccccc1)NC(=O)CN1C(=O)CSc2ncccc21 (centres undefined)	i	2.11	0.5%
Cc1n(CC(O)COC2CCCCC2)c2ccccc2[n+]1C (centres undefined)	i	/	-2.2%
CN1CCN(S(=O)(=O)c2ccc(-c3ccc(S(=O)(=O)N4CCN(C)CC4)cc3)cc2)CC1	i	-0.82	5.5%
COc1cccc(N(CC(=O)NC(C)(C)C)C(=O)C2CSC(=O)C2)c1 (centres undefined)	i	1.77	3.8%
COC(=O)Cc1[nH]nc2c1C(c1cccc(OC)c1OC)C(C#N)=C(N)O2 (centres undefined)	i	0.23	-3.7%
CC1=C(C(=O)OCc2ccccc2)C(c2ccco2)C2=C(CC(C)(C)CC2=O)N1 (centres undefined)	i	0.12	9.0%
COc1ccc(C)cc1NC(=O)CN1CCN(c2ccc(F)cc2)CC1	i	0.68	-5.8%
CCCCn1c2c(c(=O)n(C)c1=O)C(CC(=O)OCC(=O)Nc1cccc(C(F)(F)F)c1)C(=O)N2 (centres undefined)	i	-0.85	-0.2%
COc1ccc(N(CC(=O)N2CCN(C)CC2)S(=O)(=O)c2ccccc2)cc1OC	i	-1.23	0.9%
Cc1cccc(N(C(=O)c2ccc(CN3CCOCC3)o2)C(C(=O)NC2CCCCC2)c2ccc(F)cc2)c1 (centres undefined)	i	/	-0.2%
CCOC(=O)C(C)n1cnc2c(nnn2-c2cccc(Cl)c2)c1=O (centres undefined)	i	-1.04	-2.8%
O=C(Nc1cccc2c1CCCC2)C1CCN(c2nnnn2-c2ccccc2)CC1	i	-0.25	1.1%
CCOc1ccc(-c2nc(C#N)c(NC3CC3)o2)cc1	i	1.41	-10.3%
CC(C)(C)N=C1SCC(C)(/C=N/O)S1 (centres undefined)	i	0.47	-6.8%
CC(C)(C)NC(=O)CN(Cc1cccs1)C(=O)c1csnn1	i	0.1	-6.7%

A different layout for some results above:
Fields: MT1-MMP promoter	WNV protease inh	Hsc70 ATP site
COc1cccc(N(CC(=O)NC(C)(C)C)C(=O)C2CSC(=O)C2)c1 (centres undefined)
  i	1.77	3.8%
COC(=O)Cc1[nH]nc2c1C(c1cccc(OC)c1OC)C(C#N)=C(N)O2 (centres undefined)
  i	0.23	-3.7%
CC1=C(C(=O)OCc2ccccc2)C(c2ccco2)C2=C(CC(C)(C)CC2=O)N1 (centres undefined)
  i	0.12	9.0%
COc1ccc(C)cc1NC(=O)CN1CCN(c2ccc(F)cc2)CC1
  i	0.68	-5.8%
CCCCn1c2c(c(=O)n(C)c1=O)C(CC(=O)OCC(=O)Nc1cccc(C(F)(F)F)c1)C(=O)N2 (centres undefined)
  i	-0.85	-0.2%
